# Compound activity (PubChem BioAssay)
# Env fusion inh: inhibitors of HIV Env-mediated cell fusion; HeLa-JRFL Env/CEM21 cell fusion, luciferase; inhibition, % at 12.3 µM; 360,000 compounds, 1.1% hits;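 active means mean replicate inhibition score of at least 50 and every replicate individually at or above 50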;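 further: 0% = plate neutral controls and 100% = maraviroc near 300 nM; one replicate is shown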
# MT1-MMP act inh: blocks activation of human MT1-MMP | HT1080 RFP-PRO-GFP cells, GFP/RFP ratio fluorescence, overnight; percent of plate control window, DMSO zero | AID 651647 | GFP/RFP ratio change, % at 20 µM | 360,000 compounds, 0.061% hits;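 active means GFP/RFP ratio change of at least 30% with cell ATP level not reduced by more than half and red fluorescence within 50% of control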; further: strong numbers were not always called active
#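 Assay system – RFP-PRO-GFP reporter HT1080 cells · Compound dosing – single dose of 20 µM compound, 1% DMSO final · Incubation – overnight compound exposure at 37 °C · Measure – GFP/RFP fluorescence ratio · Benchmarks – DMSO wells and RFP-L50D-GFP cells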
# eIF4H FP inh: inhibitors of RNA binding by human eIF4H; inhibition, % at 35 µM; 290,000 compounds, 0.94% hits; Q15056; eIF4H fluorescence polarization binding assay;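 active means 50% or more with normal probe brightness, or confirmed in later tests; about a fifth of its hits are not listed in these tables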;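 further: calls also rest on retests at 20 µM and on dose response follow-up; 0% = protein and probe with vehicle and 100% = probe without protein; strong numbers were not always called active; many hits fall short of the cut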
# UUG fidelity: yeast start codon fidelity modulation. 350,000 compounds, 0.13% hits. activity score, % at 18.7 µM. S. cerevisiae UUG-firefly luciferase reporter, luminescence/redox ratio;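 active means replicate mean at a twofold rise or more, about +100% in these data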;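 further: firefly luciferase made from a UUG start codon reports start codon fidelity; reporter light over untreated wells divided by growth signal over untreated wells; some hits fall short of that in this replicate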
# PABP FP inh: PABP-poly(A) binding inhibition; inhibition, % at 35 µM; PABP-poly(A) RNA binding, fluorescence polarization; P11940; 290,000 compounds, 1% hits; AID 2014;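 active means 50% or more with normal probe brightness, or confirmed in later tests; about a fifth of its hits are not listed in these tables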;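 further: calls also rest on retests at 20 µM and on dose response follow-up; controls were probe without protein and protein plus probe with vehicle; some compounds called inactive have numbers as strong as hits; many hits fall short of the cut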
# Target sequence (P11940 whole entry, looked up): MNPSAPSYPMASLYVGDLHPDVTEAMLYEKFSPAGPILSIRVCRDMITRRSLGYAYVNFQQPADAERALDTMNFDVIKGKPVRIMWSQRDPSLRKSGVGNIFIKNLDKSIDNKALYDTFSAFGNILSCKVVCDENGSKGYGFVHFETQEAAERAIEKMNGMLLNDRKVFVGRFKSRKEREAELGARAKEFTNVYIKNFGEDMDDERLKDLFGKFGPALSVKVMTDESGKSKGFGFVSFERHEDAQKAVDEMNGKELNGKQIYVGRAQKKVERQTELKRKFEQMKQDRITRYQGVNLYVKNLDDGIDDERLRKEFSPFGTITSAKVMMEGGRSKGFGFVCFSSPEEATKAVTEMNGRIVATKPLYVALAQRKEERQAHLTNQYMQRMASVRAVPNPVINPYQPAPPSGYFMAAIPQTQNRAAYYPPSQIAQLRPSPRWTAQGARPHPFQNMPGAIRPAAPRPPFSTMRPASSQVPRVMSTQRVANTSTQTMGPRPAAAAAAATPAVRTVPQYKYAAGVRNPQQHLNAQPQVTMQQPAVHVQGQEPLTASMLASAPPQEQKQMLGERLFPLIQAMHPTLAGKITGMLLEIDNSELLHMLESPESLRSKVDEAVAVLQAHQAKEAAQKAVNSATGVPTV
# Rce1 inh: blocks yeast Ras-converting enzyme. Q03530. yeast membranes, quenched prenylated peptide cleavage fluorescence. calls only. 290,000 compounds, 0.27% hits. AID 2563;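 active means fall in fluorescence gain of 50% or more versus controls, with final raw signal at or below 3038400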;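 further: plate controls were neutral control wells for no effect and wells lacking membranes for full effect; tested at 10 µM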
# Target sequence (Q03530 whole entry, looked up): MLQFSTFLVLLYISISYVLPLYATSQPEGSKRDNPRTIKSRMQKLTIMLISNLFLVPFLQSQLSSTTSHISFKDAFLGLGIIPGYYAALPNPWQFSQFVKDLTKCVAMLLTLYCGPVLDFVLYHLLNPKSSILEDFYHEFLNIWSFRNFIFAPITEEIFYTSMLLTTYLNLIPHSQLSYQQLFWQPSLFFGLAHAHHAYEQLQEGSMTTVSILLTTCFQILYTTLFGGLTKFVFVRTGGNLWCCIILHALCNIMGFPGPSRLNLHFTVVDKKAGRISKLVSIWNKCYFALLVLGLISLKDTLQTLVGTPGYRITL
# CSC inhib: cancer stem cell inhibition; cancer stem cell-like cells viability, luminescence; inhibition, % at 7.5 µM; 300,000 compounds, 1.1% hits;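 active means mean at 75% or more and at least half the replicates too; tested in HMLE shEcad cells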;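 further: 0% = median of negative and 100% = median of positive control wells; the first replicate is given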
# MT1-MMP act inh RFP: recorded beside MT1-MMP act inh, whose call it bears; RFP signal change, %; measured here: RFP expression control read;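 0 = vehicle wells; hits needed this value within 50% of zero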
# * hit, by the source's call; i = inactive; x = no result given.
SMILES,Env fusion inh,MT1-MMP act inh,MT1-MMP act inh RFP,eIF4H FP inh,UUG fidelity,PABP FP inh,Rce1 inh,CSC inhib
CCNc1nc(NCc2ccccc2)nc(SCC(N)=O)n1,-3.2,4.2,3.9,4.1,-18.4,2.7,i,-5.6
CSc1ccc(CN(C)C(=O)CNC(=O)c2ccc3c(c2)OCO3)cc1,-13.3,9.4,-0.2,x,-4.5,x,i,-11.6
COc1ccc(C(C(=O)NC2CCCC2)N(C(=O)c2snc(-c3ccc(F)cc3)c2N)c2cccc(F)c2)cc1 (stereo not given),-15.0,1.7,3.8,-0.6,-13.2,2.5,i,20.9
COc1ccc(/C=C(/C(=O)c2cccs2)N2C=CC=CC2=C(C#N)C#N)cc1,i,-44.2,7.6,31.8,x,-8.5,i,x
Cc1cc(C)cc(NC(=S)N2CCC(NC(=O)c3ccc(F)cc3)CC2)c1,-16.8,-0.3,-2.8,6.1,-28.7,0.9,i,19.7
COc1cccc(Nc2c(Nc3cccc(OC)c3)c(=O)c2=O)c1,-1.1,-2.9,-0.8,47.3,17.9,0.5,i,3.7
COc1ccc(-c2cn3cc(C)ccc3n2)cc1F,-55.2,2.8,-0.2,-5.6,-45.8,2.7,x,-9.2
COc1ccc(NC2CCCN(C(=O)c3cccc(C)n3)C2)cc1OC (stereo not given),-8.4,-1.4,1.4,0.6,2.2,4.3,i,x
O=C(Oc1ccc(-c2cnc3ccccc3n2)cc1)c1cccc([N+](=O)[O-])c1,x,1.3,0.0,-4.5,x,14.9,i,-5.6
COc1ccccc1CNC(=O)OCc1nccnc1C(=O)Nc1ccc(Br)cn1,-12.1,1.0,-2.6,-14.3,7.6,4.8,i,-1.3
COc1ccc(C)cc1NC(=O)C1CCC(CNc2c(N3CCOCC3)c(=O)c2=O)CC1 (stereo not given),9.8,2.7,-0.3,-0.8,-12.7,7.1,i,-10.9
O=C(NC(=S)NC1CCS(=O)(=O)C1)c1ccccc1F (stereo not given),-11.0,0.6,4.9,6.5,-5.6,6.0,x,-3.3
N#Cc1ccccc1Oc1ccccc1C=O,-10.6,-3.5,5.6,-4.1,x,-22.5,i,14.4
COc1ncnc2c1ncn2CCCNCc1ccccc1,3.9,1.8,5.8,x,-6.1,x,x,x
Nc1nc(N)c2c(n1)CCCC2,10.1,-1.1,2.2,8.8,x,4.1,i,-2.5
N/C(=N\OC(=O)Nc1ccccc1)c1cccc(C(F)(F)F)c1,-8.6,0.2,1.5,-11.0,-14.3,-6.1,i,-2.9
CCOC(=O)N1CCN(CC(=O)NC(=O)Nc2ccc3c(c2)OCCO3)CC1,-0.7,1.9,1.4,x,-8.1,x,x,x
Cc1ccc(Nc2nc(=O)c3cccnc3s2)cc1,x,-2.7,-1.4,-7.6,-5.3,-4.7,i,-11.3
Cc1ccc(C2C(C#N)=C(N)Oc3n[nH]c(-c4cccs4)c32)s1 (stereo not given),9.4,3.0,4.0,26.9,x,22.3,i,-13.1
COc1ccc(C(=O)N2CCN(c3ccccc3)CC2)cc1S(=O)(=O)N1CCCC1,-1.1,3.4,-5.8,-8.1,-4.3,2.4,i,-11.2
CCn1c2ccccc2c2cc(NC(=O)C3CCN(S(=O)(=O)c4cccs4)CC3)ccc21,x,7.4,-2.4,-7.2,-4.8,-4.7,i,48.6
Cc1ccc(S(=O)(=O)NCCC(=O)OCn2nnc3ccccc3c2=O)cc1,0.3,0.5,4.1,4.0,-16.3,-0.5,i,-2.4
CCN(CC)c1nc(-c2ccc(Cl)cc2)cc(C(F)(F)F)c1C#N,x,-3.2,1.7,48.3,x,17.1,i,32.5
O=C(Nc1ccc(F)c(Cl)c1)C1CCCC1,-4.3,-1.2,-3.1,x,-9.2,x,x,-7.1
C=CCN=C1CC(C)(C)CC(=O)/C1=C(\O)CCCN1C(=O)c2ccccc2C1=O,-11.9,0.3,3.2,13.3,x,5.9,i,36.8
O=c1cc(CO)oc(CN2CCN(c3ccccc3)CC2)c1O,-29.2,-2.8,3.2,-9.7,-7.7,0.8,i,-7.9
Cc1ccc(S(=O)(=O)N2CCC(C(=O)N[C@@H](C)C(=O)NC3CCCCC3)CC2)cc1,-66.7,3.5,1.2,-8.1,-27.1,3.1,i,-6.7
COC(=O)[C@H](NC(=O)c1cc(-c2ccccc2)nc2ccccc12)c1ccccc1,-13.5,1.9,-1.0,x,19.9,x,i,-6.1
c1coc(C2=NCCc3ccccc32)c1,10.1,-0.1,1.7,-2.0,1.8,4.1,i,1.5
CC(C)N=C(NC#N)SCc1ccccc1,17.5,2.5,1.8,-0.2,-24.1,6.7,i,-3.9
CN(C)S(=O)(=O)c1ccc(C(=O)Nc2nnc(SCc3ccccc3)s2)cc1,4.2,-3.0,3.3,-6.5,-35.9,-11.5,i,-12.1
O=C(COC(=O)CNC(=O)c1cccc([N+](=O)[O-])c1)NCc1ccco1,-3.3,-0.8,1.2,0.6,-0.6,-3.1,i,-0.3
CCC(C)(C)n1nnnc1C(c1ccc(N(C)C)cc1)N1CCN(C2CCCCC2)CC1 (stereo not given),x,1.8,1.9,-0.4,-14.8,-6.3,x,x
COc1ccccc1-c1noc(-c2ccco2)n1,x,x,x,-0.9,-16.2,-2.7,i,-0.9
COC(=O)[C@H](Cc1ccccc1)NC(=O)NCCc1ccc(F)cc1,2.6,2.2,5.1,-15.7,8.9,2.9,i,-15.1
Cc1ccc(N(CC(=O)N2CCN(c3ccccc3F)CC2)S(=O)(=O)c2c(C)noc2C)cc1,8.8,0.8,0.9,0.6,-22.1,11.1,i,18.6
O=C(NCc1ccc2c(c1)OCO2)c1ccc2c(c1)C(=O)N(CC1CCCO1)C2=O (stereo not given),x,2.0,2.7,-5.2,-4.8,0.0,i,13.0
Cc1c(Nc2nc3ccccc3nc2N2CCN(c3ccccc3)CC2)c(=O)n(-c2ccccc2)n1C,-11.1,1.3,-3.5,-5.6,x,4.3,i,-0.6
CCOC(=O)C1(CCOC)CCN(Cc2ccc3nonc3c2)CC1,5.1,-2.7,-0.2,-5.0,-22.8,15.6,i,0.0
Cc1cc(NC(=O)C(C)C)n(-c2nc3ccccc3s2)n1,-2.4,-3.4,-1.5,-4.4,-24.5,-5.7,i,4.6
O=C(NCCc1ccccc1)c1ccc2c(c1)S(=O)(=O)N=C1CCCCCN12,x,1.1,-0.5,x,-29.6,x,x,2.3
O=c1[nH]cnc(O)c1C(c1ccc2c(c1)OCO2)c1c(O)nc[nH]c1=O,1.1,-9.3,-0.7,-0.1,-12.4,2.6,i,-3.8
COc1ccc(CCNc2nc(Cl)nc(NC(C)(C)CO)n2)cc1OC,-0.3,x,x,5.3,-15.4,-1.9,i,-10.9
Cn1nc(C(=O)N2CCN(c3ccccc3)CC2)c2c1-c1ccccc1S(=O)(=O)C2,19.4,5.4,5.3,2.1,-2.9,9.2,i,-31.0
CC(=O)c1cccc(NC(=O)NNC(=O)c2ccc3ccccc3c2)c1,-2.6,-1.6,-3.6,-2.4,-9.8,3.1,i,-13.0
COc1ccccc1CC(=O)OCC(=O)N1CCN(c2ccc(F)cc2)CC1,x,1.3,0.8,x,5.4,x,x,-9.2
CCc1nc(SCC(N)=O)c2c(=O)n(C)c(=O)n(C)c2n1,-45.1,4.4,7.0,2.1,-10.6,0.5,i,-11.0
CCN(CC)CCN1C(=O)C(O)=C(C(=O)c2cccs2)C1c1ccccn1 (stereo not given),-1.1,0.0,3.3,5.3,-5.3,33.0,i,-2.9
CC(C)(O)[C@@H]1CC[C@@](C)(C2CC[C@]3(C)C2[C@H](O)CC2[C@@]4(C)CC[C@H](O)C(C)(C)C4[C@@H](O[C@H]4O[C@@H](CO)[C@H](O)[C@@H](O)[C@@H]4O[C@@H]4O[C@H](CO)[C@@H](O)[C@H](O)[C@H]4O)C[C@]23C)O1 (stereo in doubt),1.0,-0.5,-1.7,x,17.0,x,x,-13.2
COc1cc(OC)nc(NC(=O)C(C)C)n1,13.7,1.6,2.7,-7.7,1.3,-9.6,i,-4.2
Cc1ccc(OCC(O)Cn2c(=N)n(Cc3ccccc3)c3ccccc32)cc1 (stereo not given),36.1,-14.5,-15.2,-3.0,5.1,2.6,i,33.1
CC1CCN(CCCN2C(=O)C3C(C(=O)Nc4cccc(Cl)c4)C4C=CC3(O4)C2C(=O)NC2CCCCC2)CC1 (stereo not given),17.5,-3.4,-2.6,-15.8,-9.4,-5.6,x,-0.3
CN(CC(=O)Nc1ccc(F)c(F)c1)S(=O)(=O)c1cccc2cccnc12,0.4,1.5,-3.4,1.4,0.6,8.5,i,-7.1
Cc1ccnc(NC(=O)c2ccc(OCC3CCCO3)cc2)c1 (stereo not given),17.7,0.1,-0.7,x,-66.8,x,i,22.1
NC(Cc1ccc(Cl)cc1)c1csc(Nc2ccc(S(N)(=O)=O)cc2)n1 (stereo not given),-19.1,-7.1,-1.5,x,-14.0,x,x,x
COc1cccc(NC(=O)c2nc(SC)ncc2Cl)c1,0.0,-2.5,1.5,-5.6,-25.3,1.5,i,0.2
CC(C)(C)N(NC(=O)c1ccccc1)C(=O)c1cccc(C(=O)N(NC(=O)c2ccccc2)C(C)(C)C)c1,x,-3.4,0.8,-9.3,-2.1,-0.6,i,-12.4
O=C(CSc1nc2ccsc2c(=O)n1NC(=O)c1ccccc1)NCc1ccco1,-83.3,-2.6,0.9,4.0,3.4,14.8,i,11.4
C=CCSc1ncnc2sc(C)c(C)c12,-33.2,1.7,6.4,-9.9,-0.5,2.0,i,-12.1
Cc1cccc(OCCCSc2nc3ccc(C)cc3[nH]2)c1,x,8.3,1.9,-5.3,x,0.1,i,x
# Carrying on:
SMILES,Env fusion inh,MT1-MMP act inh,MT1-MMP act inh RFP,eIF4H FP inh,UUG fidelity,PABP FP inh,Rce1 inh,CSC inhib
COC(=O)c1ccccc1COn1c(=O)c(C)[n+]([O-])c2ccccc21,x,-21.6,1.2,-0.7,-20.1,-2.7,i,-12.0
COc1ccc2[nH]c(C(=O)N3CCc4ccccc4C3)c(C)c2c1,2.0,0.5,-5.0,-5.6,-12.1,-0.2,i,-10.2
Cc1ccc(-c2[nH][nH]c(=O)c(=O)c2N=Nc2ccccc2)cc1,-3.0,2.8,0.5,6.0,-14.7,-4.2,i,3.4
CCN1CCN(C(=O)CN(CCc2ccccc2)S(C)(=O)=O)CC1,-24.2,5.5,-2.2,-0.2,-11.6,-0.8,i,-8.3
COc1ccc(-c2nc3c4ccccc4ccn3c2Cc2cccc(Cl)c2)cc1OC,9.1,-5.8,-2.7,x,1.0,x,x,x
C=CCC[C@@H](Cc1ccc(F)cc1)C(=O)OC[C@@H](NC(=O)[C@@H](CC=C)CC(=O)N[C@@H](CO)Cc1ccccc1)C(C)(C)C,-23.0,-12.4,-18.6,x,-5.0,x,x,-3.8
Cc1cccc(NC(=S)NC23CN4CN(CN(C4)C2)C3)c1,-11.2,1.9,7.5,2.1,x,0.9,i,-6.9
CCNC(=O)COC(=O)/C=C/c1cccc(F)c1,-1.1,-1.4,1.5,-3.3,x,2.1,i,11.4

# 4 compounds out of the list, sorted by molecular weight, largest number first.
SMILES,Env fusion inh,MT1-MMP act inh,MT1-MMP act inh RFP,eIF4H FP inh,UUG fidelity,PABP FP inh,Rce1 inh,CSC inhib
COc1ccc(C(=O)N2CCN(c3ccccc3)CC2)cc1S(=O)(=O)N1CCCC1,-1.1,3.4,-5.8,-8.1,-4.3,2.4,i,-11.2
CCOC(=O)N1CCN(CC(=O)NC(=O)Nc2ccc3c(c2)OCCO3)CC1,-0.7,1.9,1.4,x,-8.1,x,x,x
CC(=O)c1cccc(NC(=O)NNC(=O)c2ccc3ccccc3c2)c1,-2.6,-1.6,-3.6,-2.4,-9.8,3.1,i,-13.0
N#Cc1ccccc1Oc1ccccc1C=O,-10.6,-3.5,5.6,-4.1,x,-22.5,i,14.4
